# Compound activity: PubChem BioAssay, National Center for Advancing Translational Sciences (NCATS)
# RE007 growth inh: qHTS Assay for Inhibitors of the HIV-1 protein Vpr; S. pombe RE007 Vpr strain, BacTiter-Glo ATP luminescence, 24 h; control for the full effect not named in the record; Potency, µM (series often up to 92.2 µM), without a hit: top-dose activity change, negative = less growth; 360,000 compounds, 0.21% hits; active = well fitted falling curve with a large enough effect; inconclusive = small, poorly fitted or top-dose-only effect; inactive = no such curve, though single readings can be large or run the other way;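 further: on the % scale 0 is the no-effect control and ±100 the full control effect; nearly all actives have a fitted effect of over 50% in size; the assay follows cell death caused by Vpr and the record does not say whether a fall means rescue or toxicity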
#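 Fission yeast strain RE007, carrying one chromosomally integrated HIV-1 vpr copy, was seeded at OD 0.01 in PMG+AL medium with 23 nL pinned compound. After 24 h at 30 °C and 99% humidity, viability was read by BacTiter-Glo luminescence.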
# NS1 inh: qHTS Assay for Inhibitors of Influenza NS1 Protein Function; S. cerevisiae slowed by influenza A NS1, growth recovery by OD600; AID 2326, 2010; Potency, µM (series often up to 46.1 µM), without a hit: top-dose activity, positive = more growth; 270,000 compounds, 0.4% hits; active means well fitted rising curve with a large enough effect; inconclusive means small, poorly fitted or top-dose-only effect; inactive means no such curve, though single readings can be large or run the other way; further: nearly all actives have a fitted effect of over 50% in size
#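 Growth recovery, yeast-based: influenza A NS1 expressed in S. cerevisiae causes slow growth, and suppressors are detected by OD600. The parent strain without NS1 is used as positive control.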
# SARS PLP yeast: qHTS of Yeast-based Assay for SARS-CoV PLP; AID 485353, 2010; 330,000 compounds, 0.19% hits; S. cerevisiae expressing SARS-CoV PLpro, growth rescue; control for the full effect not named in the record; Potency, µM (titrated, usually from 32.9 µM), for the others: top-dose activity, positive = growth rescue; active means well fitted rising curve with a large enough effect; inconclusive means small, poorly fitted or top-dose-only effect; inactive means no such curve, though single readings can be large or run the other way; further: 0% is about no effect; nearly all actives have a fitted effect of over 55% in size; growth read by luminescence after 48 h
# MARV entry inh: qHTS for inhibitors of binding or entry into cells for Marburg Virus | Marburg virus pseudotyped entry inhibition, cell reporter; control for the full effect not named in the record; about a third of the inactives were read at about 46 µM | Potency, µM (highest dose often 37.8 µM), without a hit: at the top dose activity change, negative = inhibition, actives largely listed as inhibitors | 300,000 compounds, 1.8% hits; active = well fitted inhibition curve with a large enough effect; inconclusive = small, poorly fitted or top-dose-only effect, or effect the other way; inactive = flat fitted curve, though single readings scatter; tested in HEK293 cells; about a fifth of its hits are not listed in these tables; further: on the % scale 0 is the no-effect control and ±100 the full control effect; luciferase read-out
# Cruzain inh Det: qHTS Assay for Promiscuous and Specific Inhibitors of Cruzain (with detergent); Cruzipain (Trypanosoma cruzi), P25779; purified cruzain, Z-FR-AMC fluorescence, 0.01% Triton; Potency, µM, for inactives: max response, negative = inhibition, hits mostly inhibitors; 200,000 compounds, 0.43% hits; AID 1478, 2009;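 further: plate controls were neutral wells for no effect and buffer without enzyme for full effect; nearly all actives have a fitted effect of over 40% in size; top concentration of the series not given in the record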
# Target sequence (P25779 123-467 limits assumed): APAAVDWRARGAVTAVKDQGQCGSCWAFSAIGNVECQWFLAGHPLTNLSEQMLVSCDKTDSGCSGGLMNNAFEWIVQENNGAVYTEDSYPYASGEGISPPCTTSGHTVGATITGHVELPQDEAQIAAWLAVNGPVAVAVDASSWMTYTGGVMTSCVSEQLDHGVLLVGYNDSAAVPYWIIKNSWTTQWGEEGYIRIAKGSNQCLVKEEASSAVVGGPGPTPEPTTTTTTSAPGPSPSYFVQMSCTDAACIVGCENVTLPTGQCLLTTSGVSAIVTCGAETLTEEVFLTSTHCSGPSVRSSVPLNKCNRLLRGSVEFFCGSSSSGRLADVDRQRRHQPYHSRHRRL
#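 15 min RT preincubation of 1.5 nM cruzain with compound, then 2 uM Z-FR-AMC added; kinetic AMC fluorescence, 60 s delta. Triton X-100 0.01%, pH 5.5.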
# 2A StopGo: High Throughput Screening for Foot and Mouth Disease Virus Antivirals; human cells with a luciferase reporter of 2A StopGo recoding; control for the full effect not named in the record; Potency, µM (series often up to 57.9 µM), inactives show top-dose signal change, negative = less light; AID 1159524, 2015; 410,000 compounds, 1.2% hits; active = well fitted falling curve with a large enough effect; inconclusive = small, poorly fitted or top-dose-only effect; inactive = no such curve, though single readings can be large or run the other way; tested in HEK293T cells; further: on the % scale 0 is the no-effect control and ±100 the full control effect; nearly all actives have a fitted effect of over 45% in size; luciferase light after 4 h
# Cruzain noTriton: qHTS Assay for Promiscuous and Specific Inhibitors of Cruzain (without detergent); purified cruzain, Z-FR-AMC fluorescence, no detergent; AID 1476, 2009; Cruzipain (Trypanosoma cruzi), P25779; 200,000 compounds, 2.3% hits; Potency, µM, without a hit: max response, negative = inhibition, actives largely listed as inhibitors;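 further: plate controls were enzyme without inhibitor for no effect and buffer without enzyme for full effect; nearly all actives have a fitted effect of over 40% in size; top concentration of the series not given in the record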
#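 Purified cruzain at 1.5 nM, pre-incubated 15 min with compound at room temperature in 100 mM sodium acetate pH 5.5, 5 mM DTT, 0.00005% Triton X-100. Reaction started with 2 uM Z-FR-AMC; AMC fluorescence increase over 60 s gives rate.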
# Lassa entry inh: qHTS for Inhibitors of binding or entry into cells for Lassa Virus; Lassa virus pseudotype entry inhibition, cell reporter; control for the full effect not named in the record; Potency, µM (series often up to 37.9 µM), for inactives: at the highest dose activity change, negative = inhibition, usual class: inhibitors; AID 540256, 2011; 300,000 compounds, 1.2% hits; active means well fitted inhibition curve with a large enough effect; inconclusive means small, poorly fitted or top-dose-only effect, or effect the other way; inactive means flat fitted curve, though single readings scatter; tested in HEK293 cells; further: on the % scale 0 is the no-effect control and ±100 the full control effect; nearly all actives have a fitted effect of over 50% in size; luciferase read-out
# An asterisk follows results filed as active; ? = inconclusive; . = not tested or not shown; & = joins results of further samples; [ ] = dose if it differs, or a comment. Unless noted, the call rests on the fitted dose curve; in most records, active means well fitted curve in the direction sought with a large enough effect; inconclusive means small, poorly fitted or top-dose-only effect, or another doubt; inactive means no such curve, though single readings can be large; an effect the other way counts as inactive or inconclusive. Potency means the concentration at half of the fitted maximal effect.
SMILES	MARV entry inh	Cruzain noTriton	2A StopGo	Lassa entry inh	RE007 growth inh	NS1 inh	Cruzain inh Det	SARS PLP yeast
CC1CCCC(C)N1CCCNC(=O)c1cc2c(=O)n(C)c3ccccc3c2n1C (stereo not drawn)	-3.8%	-18.0%	-2.9%	.	-4.6%	-1.2%	2.1%	0.7%
CC(=O)NCC1(O)CCCC(C)C1 (stereo not drawn)	-0.5%	.	-2.1%	3.1%	-13.7%	0.3%	.	-0.9%
CCCC1(c2ccccc2)NC(=O)N(CC(=O)NCc2ccc(OC)cc2)C1=O (stereo not drawn)	.	.	-16.4%	.	5.9%	-1.7%	.	0.4%
O=C(CCC1CCCN(C(=O)c2cccnc2)C1)NCc1ccccc1F (stereo not drawn)	-16.1%	.	-1.2%	-10.0%	-16.5%	3.1%	.	-1.6%
Cc1nccc(-c2ccc(-n3c(C)ccc3C)cc2)n1	-3.8%[46.1 µM]	.	-13.7%	-27.3%[46.1 µM]	-6.5%	8.7%	.	-1.5%
COC(=O)Cc1c(C)c2ccc(OC(=O)c3ccco3)cc2oc1=O	1.0%	13.7%	-4.6%	16.6%	-22.1%	-245.2%	10.7%	-21.6%
O=C(NC(=S)N1CCCCC1)c1csc([N+](=O)[O-])c1	6.9%[46.1 µM]	.	26.4%	-11.0%	-3.3%	3.0%	.	0.8%
Cc1ccc(C(=O)Nc2sc3c(c2C#N)CCCCC3)cc1C	23.5%	?	49.2%[activator]	20.0%	-4.0%	10.6%	-10.7%	1.6%
O=C(CCCOc1ccc(Cl)cc1Cl)Nc1ccncc1	-11.6%	-1.1%	.	2.5%	-4.4%	-101.0%	-7.1%	-25.2%
CCCCSc1nc2c([nH]1)c(=O)n(C)c(=S)n2C	?	.	-2.5%	-16.2%	-14.4%	.	.	.
O=C(NCCC1=CCCCC1)c1ccc(Br)o1	?	16.8%	46.0%[activator]	-5.2%	?	-68.7%	4.8%	-6.4%
Cc1cc(C)nc(N2CCCC(C(=O)NC3CCCC3)C2)n1 (stereo not drawn)	?	1.8%	-18.0%	0.2%	-3.1%	-4.1%	4.3%	2.4%
COc1ccc(/C=C2\SC(N)=NC2=O)cc1Br	14.9%	.	0.0%	-24.2%	-8.1%	4.5%	.	-1.6%
CCOC(=O)c1c(C)[nH]c(NC(=O)N2CCOCC2)c1C	19.8%	1.8%	.	0.4%	1.6%	2.4%	4.1%	-1.9%
Cc1ccc2nc(C(Cl)(Cl)Cl)nc(N/N=C/c3ccncc3)c2c1	-2.3%[46.1 µM]	.	-23.5%	-4.0%	3.1%	.	.	2.7%
CCNS(=O)(=O)c1ccc(NC(=O)Nc2cccc(OC)c2)cc1	19.5%	4.7%	76.3%[activator]	?	0.7%	-8.2%	-9.1%	7.7%
CCN1CCN(S(=O)(=O)c2ccc(Oc3ccccc3OC)cc2)CC1	-15.6%[46.1 µM]	.	-1.3%	12.5%	-0.6%	.	.	-1.5%
COc1cccc(NC(=O)NCc2ccccc2Cl)c1	?	.	68.7%[activator]	-15.8%[46.1 µM]	-13.7%	.	.	.
Cc1ccccc1CNc1ccc(C(CC(N)=O)NC(=O)c2ccc(Br)cc2)cc1[N+](=O)[O-] (stereo not drawn)	.	.	-25.2%	.	15.7%	8.2%	.	0.8%
O=C(Nc1ccc(O)cc1)c1cc2n(n1)C(C(F)(F)F)CC(c1ccco1)N2 (stereo not drawn)	-12.6%	-1.5%	-7.3%	?	0.5%	1.5%	1.7%	4.3%
CC(CCN1CCN(c2ccc(F)cc2)CC1)c1ccccc1 (stereo not drawn)	?	.	-15.7%	?	-25.3%	-2.8%	.	-5.7%
O=C(COC(=O)/C=C/c1ccc(Br)o1)Nc1cccc(S(=O)(=O)N2CCOCC2)c1	5.1%	.	-12.6%	-14.5%	13.9%	.	.	4.2%
CC(C)C1N=C2c3ccccc3N=C(SCC(=O)NCc3ccc(F)cc3)N2C1=O (stereo not drawn)	.	-1.7%	3.3%	-0.3%[46.1 µM]	.	.	-1.8%	.
O=C(COc1ccc(Cl)cc1)OCc1cc(=O)n2nc(C3CC3)sc2n1	.	2.6%	-1.8%	22.2%[46.1 µM]	.	.	-1.7%	.
O=S(=O)(c1ccc(Cl)cc1)c1nnn2c1nc(N1CCCCC1)c1sccc12	.	-2.1%	-4.7%	39.7%[46.1 µM]	.	.	1.4%	.
Cc1ccc2nc(NCCc3ccc(Cl)cc3)c3nncn3c2c1	-0.4%[46.1 µM]	3.3%	-12.0%&-6.4%	22.2%[46.1 µM]	5.5%	-4.5%	-3.1%	-1.3%
Cc1ccccc1NC(=O)c1c(Cl)nc(C)c(Cl)c1C	5.2%	-7.8%	-0.9%	3.4%	24.6%	24.1%	-0.7%	6.7%
O=C(NCCc1ccccc1)/C(=C\c1cccc([N+](=O)[O-])c1)NC(=O)c1ccco1	-18.4%	.	-7.1%	15.6%	4.1%	15.2%	.	1.6%
O=C(CCC1N=C2c3ccccc3N=C(SCc3cccc(Cl)c3)N2C1=O)NCc1cccs1 (stereo not drawn)	.	7.8%	?	-4.2%[46.1 µM]	.	.	-1.4%	.
CCC(NC(=O)CNC(=O)c1ccc2c(c1)OCO2)c1ccc(Br)cc1 (stereo not drawn)	10.9%	.	15.9%	-15.3%	-12.5%	.	.	-4.3%

# Further results follow.
SMILES	MARV entry inh	Cruzain noTriton	2A StopGo	Lassa entry inh	RE007 growth inh	NS1 inh	Cruzain inh Det	SARS PLP yeast
c1ccc(SCc2nc3ccccc3[nH]2)nc1	?	-3.1%	31.0%[activator]	12.6%	-5.4%	-13.4%	0.6%	-2.8%
Cc1cccc2[nH]c(CCNC(=O)C3CCC(=O)N(CCc4cccc(F)c4)C3)nc12 (stereo not drawn)	.	.	-10.3%	.	-5.1%	-8.6%	.	-2.3%
COC(=O)CNC(=O)C1Cc2ccccc2CN1S(=O)(=O)c1cccs1 (stereo not drawn)	2.0%[46.1 µM]	.	1.2%	2.3%	-15.8%	3.9%	.	0.7%
CCN(CC)S(=O)(=O)c1ccc2nc(NC(=O)c3ccc(Br)o3)sc2c1	.	16.8%	8.6%	-0.4%[46.1 µM]	.	.	0.0%	.
COCCNC(=O)COc1cc(=O)n(C)c2ccccc12	-13.3%	-9.1%	21.3%	11.8%	0.9%	-5.5%	1.3%	0.1%
Cc1ccc(S(=O)(=O)N/N=C(\c2ccccc2)c2cccnc2)cc1	?	.	-4.5%	-0.9%[46.1 µM]	3.2%	-3.0%	.	-0.7%
NS(=O)(=O)c1ccc(CCNC(=O)CCCn2c(SCC(=O)N3CCCC3)nc3ccsc3c2=O)cc1	?	.	-18.4%	14.1%[46.1 µM]	4.0%	.	.	-0.4%
CCCC(=O)NCCSC	9.9%	-3.0%	-12.6%	4.5%	16.7%	2.3%	3.9%	8.3%
Cc1ccc2nc(N3CCN(C)CC3)[nH]c2c1	?	-9.1%	57.9%[activator]	1.1%	-7.3%	4.7%	5.6%	2.0%
O=C(Nc1ccccc1)C1=C[C@H](C2CCCCC2)C[C@H](OCc2ccc(CO)cc2)O1	.	.	11.7%	.	-5.8%	14.7%	.	-0.9%
COc1cccc(CNC(=O)CCCNS(=O)(=O)c2cccs2)c1	?	-1.1%	-26.2%	-13.4%	21.5%	3.7%	4.1%	8.1%
COC(=O)c1nn(-c2ccccc2)c(=O)cc1Oc1ccccc1	-7.2%	-6.7%	-13.5%	1.2%	-14.4%	-0.1%	2.6%	3.1%
CCOC(=O)c1cc(S(=O)(=O)N2CCN(c3ccccc3OC)CC2)cn1C	-2.8%[46.1 µM]	.	-3.8%	-0.5%[46.1 µM]	-6.7%	-7.4%	.	14.2%
O=C1NC(NS(=O)(=O)c2ccccc2)(C(F)(F)F)C(=O)N1Cc1ccccc1 (stereo not drawn)	.	.	24.9%	.	1.3%	5.8%	.	8.3%
O=C(CCS(=O)(=O)c1cc2c(cc1Cl)NC(=O)CO2)NCc1ccc(Cl)cc1	.	5.6%	-6.6%	-9.2%[46.1 µM]	.	.	-2.5%	.
CC1CCN(S(=O)(=O)c2ccc3c(ccn3CCC(=O)NC(C)C)c2)CC1	.	.	21.0%	.	0.0%	5.7%	.	-3.1%
O=C(CN1NS(=O)(=O)c2ccccc2C1=O)Nc1ccccc1OC(F)F	11.2%	-0.4%	-20.0%	9.6%	5.9%	-3.9%	-0.7%	-2.3%
CCCCN(C(=O)c1ccc(S(=O)(=O)N(CC)CC)cc1)c1c(N)n(CCC)c(=O)[nH]c1=O	-9.9%[46.1 µM]	.	-12.9%	-13.6%	-1.1%	-7.4%	.	21.6%
COc1ccccc1NC(=O)CC1S/C(=N/N=C2\CCCc3ccccc32)NC1=O (stereo not drawn)	?	.	-12.7%	?	5.3%	.	.	-13.6%
CSc1ncccc1C(=O)Nc1ccc2c(c1)OCCO2	8.1%	.	15.8%	?	-2.3%	.	.	-9.0%
CC1Cn2c(nc3c2c(=O)[nH]c(=O)n3C)O1 (stereo not drawn)	3.3%	-10.2%	0.1%	4.4%	16.6%	?	-1.7%	12.5%
O=C(CN1N=C(c2ccccc2)CCC1=O)NCc1ccco1	.	-6.2%	.	.	.	-1.0%	-1.5%	8.9%
Cc1nc2nc[nH]n2c(=O)c1CCC(C)C	11.8%	-0.2%	17.2%	-6.2%	13.8%	16.3%	11.8%	-0.4%
CCOc1cc(CNc2nn[nH]n2)ccc1OCC(=O)NC(C)(C)C	-0.1%[46.1 µM]	.	5.7%	10.6%[46.1 µM]	3.3%	.	.	0.5%
COc1ccc(CCn2c(O)c(C=NCCCn3ccnc3)c(=O)[nH]c2=O)cc1OC	15.5%	0.3%	-0.8%	3.9%	-9.4%	0.0%	-0.9%	11.8%
CCOc1ccc(-c2c(=O)n(OCc3ccccc3Br)c3ccccc3[n+]2[O-])c(OCC)c1	.	.	-5.4%	.	-7.2%	6.8%	.	-0.4%

# No enrichment for hits. Share with any hit: about 4.6%.
